Bioassay records: PubChem, National Center for Advancing Translational Sciences (NCATS)
VDR inhibitor: Inhibitors of the vitamin D receptor (VDR): qHTS; Vitamin D3 receptor (Homo sapiens), P11473; VDR-SRC2-3 peptide fluorescence polarization, 2 h; Potency, µM, for inactives: max response, negative = inhibition, actives largely listed as inhibitors; actives 0.93% (n = 400,000); AID 504847, 2011; active = well fitted inhibition curve with a large enough effect; inconclusive = small, poorly fitted or top-dose-only effect, or another doubt; inactive = no such curve, though single readings can be large or run the other way; also: series mostly up to about 120 µM
Target sequence (P11473 whole entry, looked up): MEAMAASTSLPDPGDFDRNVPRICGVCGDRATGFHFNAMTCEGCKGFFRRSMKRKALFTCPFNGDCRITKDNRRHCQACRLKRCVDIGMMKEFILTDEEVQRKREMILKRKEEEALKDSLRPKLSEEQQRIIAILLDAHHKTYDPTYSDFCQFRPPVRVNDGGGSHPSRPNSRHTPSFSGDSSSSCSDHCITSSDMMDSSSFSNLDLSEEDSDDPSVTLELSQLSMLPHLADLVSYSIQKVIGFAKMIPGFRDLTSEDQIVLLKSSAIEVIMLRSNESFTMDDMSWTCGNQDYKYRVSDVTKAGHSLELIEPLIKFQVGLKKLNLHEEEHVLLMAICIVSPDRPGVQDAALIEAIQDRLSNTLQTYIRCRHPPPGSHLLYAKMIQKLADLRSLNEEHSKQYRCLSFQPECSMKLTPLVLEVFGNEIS
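The screen uses fluorescence polarization to detect compounds that interfere with recruitment of the SRC2-3 coactivator peptide to VDR; plates are read after 2 h at room temperature.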
Active calls of the source: *; ? = inconclusive; & = joins results of further samples; [ ] = another dose, or the depositor's remark. % is scaled to controls: 0 for no effect and ±100 for the full control effect; potency is read from the fitted curve at half-maximal effect.

SMILES	VDR inhibitor
O=C(NCc1ccco1)C1CCCN1C(=O)NCc1ccccc1 (stereo not given)	3%
COc1ccc(CN(Cc2ccccc2)C(=O)C2CC2)cc1COc1ccc(NC(C)=O)cc1	15%
Cc1c(C(=O)N2CCN(Cc3ccc4c(c3)OCO4)CC2)sc2ncnc(N3CCN(c4ccccc4F)CC3)c12	-7%
CCn1c(=O)n(CC)c2cc(N3CCCC3)c(NC(=O)c3cccc(C)c3)cc21	86%[activator]
COc1ccc(C(C)=O)cc1CSc1nnc(-c2ccccc2O)n1-c1ccccc1	12%
Cc1cc2c(C)nc3ccccc3c2o1	-4%
COc1ccccc1C1CC(c2ccccc2)Nc2ncnn21 (stereo not given)	5%
O=C(Cn1ncc2c3ccccc3n(Cc3ccccc3)c2c1=O)NCCCN1CCCCC1	27%
CCn1cc(C(=O)O)c(=O)c2cc3c(cc21)OCO3	8%&14%&1%
CC(=O)c1cccc(NC(=O)CN2C(=S)NC(C)(C)CC2C)c1 (stereo not given)	-9%
O=C(Nc1ccc(S(=O)(=O)N2CCc3ccccc32)cc1)C(F)(F)F	-11%
S=c1nc(-c2csc3c2CCCC3)[nH][nH]1	?
O=S(=O)(Cc1ccccc1)Nc1ccc(Br)cn1	-10%
CC(C)C[C@@H](CN)NC(=O)c1nc[nH]c1C(=O)N[C@@H](C)C(=O)CNC[C@H](CC(C)C)NC(=O)c1nc[nH]c1C(=O)N[C@@H](CC(=O)O)C(=O)O	-22%
CN(C)S(=O)(=O)c1ccc(N2CCCC2)c(C(=O)Nc2ccccc2N2CCOCC2)c1	3%
O=C(CC1C(=O)NCCN1Cc1cccc(F)c1)NC1CCCCCC1 (stereo not given)	-12%
Cc1nc(NS(=O)(=O)c2ccc(N)cc2)nc(C)c1Br	1%
CCN(CCCNC(=O)CCCN1C(=O)COc2ccc(C)cc21)c1cccc(C)c1	-2%
COCCCNC(=O)C1CCN(C(=O)c2cnn(-c3ccccc3)c2-n2cccc2)CC1	14%
CCC(C(=O)NC1CC1)n1nc(C)c2c(C)n(-c3ccccc3)nc2c1=O (stereo not given)	-7%
COc1ccccc1OCC(=O)Nc1ccc(N2CCCCC2)cc1	-8%
CCCc1cc(=O)[nH]c(SCC(=O)NCc2ccc3c(c2)OCO3)n1	8%
CCn1c(=O)c2sccc2n2c(CCCC(=O)Nc3ccc(C)cc3)nnc12	2%
COc1ccccc1N1CCN(C(=O)c2ccc3[nH]c(C)c(C)c3c2)CC1	22%
CN(C)/C(=N\S(=O)(=O)c1ccccc1)c1ccc(Cl)cc1	-3%
C=CCN(CC=C)C(=O)c1cccc(S(=O)(=O)N2c3ccccc3CC2C)c1 (stereo not given)	60%[activator]
Cc1ccc(NC(=O)CN2C(=O)S/C(=C\c3ccccn3)C2=O)cc1	?
CC1(O)c2ccccc2C(=O)N1CCc1ccccc1F (stereo not given)	-9%
CC(C)(C)OC(=O)NCCc1nnc(SCC(=O)Nc2cccc(Cl)c2)o1	11%
CCOC(=O)/C(=C/Nc1ccccc1)[N+](=O)[O-]	17%
COc1cc(/C=N/n2c(C)n[nH]c2=S)ccc1OCc1ccc(F)cc1	-30%
Nc1nonc1-n1nnc(C(=O)N/N=C/c2ccc(F)cc2)c1-c1cccs1	-2%
NC(=O)COC(=O)c1ccc2noc(-c3ccccc3)c2c1	9%
CCOC(=O)Cn1cc(/C=C(\C#N)C(=O)N2CCOCC2)c2ccccc21	-7%
Cn1c2ccsc2c2ncn(Cc3ccccc3F)c(=O)c21	-2%
CCCCCCc1nc(C(N)=O)c2[nH]c(=O)n(-c3ccc(OCC)cc3)c2n1	0%
Cc1ccc(CNC(=O)CCS(=O)(=O)c2ccc(Br)s2)cc1	-4%
COc1ccc(NS(=O)(=O)c2cccc(-c3n[nH]c(=S)n3Cc3ccccc3)c2)cc1	-12%
CCN(CC)c1ccc2cc(-c3nc(-c4ccccc4F)no3)c(=O)oc2c1	4%
COc1ccc(NC(=O)Cc2c(O)c3ccccc3[nH]c2=O)cc1	11%
N#Cc1cc2c(nc1SCC(N)=O)CCCCC2	-21%
Cc1c2cc[n+](CCN3CCCCC3)cc2c(C)c2c1[nH]c1ccc(O)cc12	20%
CN(C(=O)COC(=O)c1n[nH]c(=O)c2ccccc12)c1ccccc1	-5%
CCCN(CCC)c1nc(-c2ccccn2)nc2ccccc12	-8%
COc1cc(NC(=O)CSc2nc(-c3ccccc3)no2)cc(OC)c1	1%
N#CC(Cc1cccc(CC(C#N)(c2ccccc2)c2ccccc2)c1)(c1ccccc1)c1ccccc1	-3%
CCC(C)c1ccc(OCC(=O)Nc2ccc3c(c2)C(=O)NC3=O)cc1 (stereo not given)	-1%
COc1ccc(CCNC(=O)CC2C(=O)NCCN2CC(C)(C)C)cc1 (stereo not given)	-9%
CC(=O)N1c2ccccc2C(C)=CC1(C)C	-6%
CCCOc1ccc2c(=O)c(-c3cc(C(=O)OC)oc3C)c(C)oc2c1	1%
C[C@@H]1O[C@@H](O[C@H]2[C@H](O)[C@@H](O)[C@H](Oc3c(-c4ccc(O)c(O)c4)oc4cc(O)cc(O)c4c3=O)O[C@@H]2CO)[C@H](O)[C@H](O)[C@H]1O	-11%
CCOc1ccc(OCC)c(NC(=O)c2c(C)nn(-c3ccccc3)c2-n2cccc2)c1	-8%
COC(=O)c1ccc(NC(=O)c2c(NCc3ccc(C)o3)sc3c2CCCC3)cc1	-8%
COc1ccc(Cl)c(CNC[C@H]2O[C@@H](n3cnc(C(N)=O)n3)[C@H](O)[C@@H]2O)c1	-12%
Cc1c(C(=O)N(C)C)sc2c1c(=O)n(-c1ccc(Cl)c(Cl)c1)c(=O)n2CC(=O)Nc1cccc(C(F)(F)F)c1	14%
O=C(Nc1cccnc1)C1(c2ccc(Cl)cc2)CCCC1	2%
Cc1ccc(-n2nc(C(=O)N3CCN(c4ccccc4F)CC3)c(=O)n(C)c2=O)cc1	0%
O=C(c1n[nH]c(=O)c2ccccc12)N1CCOCC1	0%
O=C(NCc1ccccn1)c1cc(Cl)ccc1OCc1ccccc1	-11%
O=C1N(c2ccccc2)c2ccccc2C1(O)C(F)(F)F (stereo not given)	4%

Other results
SMILES	VDR inhibitor
CCOC(=O)c1c(-c2ccc(C)cc2)csc1NC(=O)c1cc(=O)c2cc(C)cc(C)c2o1	-11%
COCCN(C(=O)CC1CCCCC1)c1c(N)n(CC(C)C)c(=O)[nH]c1=O	-4%
COc1ccc(C(=O)/C(C#N)=N/Nc2ccccc2[N+](=O)[O-])cc1	3%
CNC(=S)N1CCC(Cc2ccccc2)CC1	10%
CCOC(=O)/C(C#N)=C/c1ccc(-c2ccccc2)o1	-15%
CC(C)CC(=O)N/C(N)=N/c1nc2ccccc2s1	1%
O=C(NCc1ccc2c(c1)CCN2C(=O)c1ccccc1)c1cc2ccccc2[nH]1	17%
CC(C)NCC(O)c1ccc2ccccc2c1 (stereo not given)	-12%&5%&-1%
CCCNC(=O)/C=C/c1ccc(C(C)C)cc1	2%
Nc1nc(NCc2ccco2)nc(NC2CCCCC2)c1[N+](=O)[O-]	-9%
S=C1N(c2ccccc2)CN(C2CCCCC2)CN1c1ccccc1	-3%
COc1cccc(CNC(=O)c2cccn2-c2nnc(N3CCCC3)s2)c1	5%
CCN(Cc1nc2ccccc2c(=O)[nH]1)Cc1nc2ccsc2c(=O)[nH]1	-15%
CN(C)c1ccc(/C=C/C(=O)c2cc(Cl)ccc2O)cc1	-7%
c1ccc(-c2n[nH]c(-c3ccccn3)n2)nc1	-2%&-13%
CC(C)CNC(=O)C1Nc2ccc(OC(F)(F)F)cc2C2C=CCC12 (stereo not given)	?
CCCOC(=O)c1cc2ccccc2oc1=O	3%
O=C1CN(C(=O)COC(=O)[C@@H]2CC(O)CN2S(=O)(=O)c2ccc(Cl)cc2)c2ccccc2N1 (stereo not given in full)	-9%
Cc1ccccc1-n1nnc2c(=O)oc3ccccc3c21	3%
COc1cc(/C=C2/CCc3ccccc3C2=O)cc(OC)c1OC	-14%
Cc1ccc(N(CC(=O)NCc2ccc(F)cc2)C(=O)c2csnn2)cc1C	11%
COc1ccccc1CN1CCCC2(CCNCC2)C1	-16%
COc1ccc(C(=O)Nc2ccc(Br)cc2F)cc1S(=O)(=O)N1CCCC1	-17%
CC(C)(C)CC(C)(C)NC(=S)N1CCN(Cc2ccc3c(c2)OCO3)CC1	-20%
COc1cc2c(cc1NC(=O)C(C)Sc1nc3ccccc3n1C)oc1ccccc12 (stereo not given)	9%
N#Cc1ccc(OCC(=O)N(C2CCCCC2)C2CCS(=O)(=O)C2)cc1 (stereo not given)	-8%
O=S1(=O)N[C@@H](CC2=CCCCC2)C2CCCCC2O1 (stereo not given in full)	-1%
O=C(c1cc(-c2ccco2)nn1-c1cccc(Cl)c1)N1CCCCC1	?
O=C(O)CSc1cc(C(F)(F)F)nc(-c2ccccn2)n1	11%
CCCN1C(=O)c2ccccc2NC1c1ccc(OC)c(COc2cccc(C)c2C)c1 (stereo not given)	0%
CS(=O)(=O)N(CC(=O)Nc1ccc(Br)cc1)c1ccccc1Br	6%
CC1CC(C)CN(S(=O)(=O)N2CCCC(C(=O)NCCCN3CCCCC3C)C2)C1 (stereo not given)	-9%
CCCCCNCc1ccc(Cl)cc1	2%
O=C(C1CC(=O)N(C2CCCC2)C1)N1CCN(c2ccccc2)CC1 (stereo not given)	-7%
CNC(=O)c1ccc(Oc2ccc(C(=O)NC)cc2)cc1	-6%
CCOC(=O)[C@@H]1[C@H]2COc3ccc(Br)cc3[C@@H]2N2C(=O)N(c3ccc(F)cc3)C(=O)[C@@]12C	-1%

Reformatted bar-delimited: entries from further up
Molecule | VDR inhibitor
COc1ccccc1CN1CCCC2(CCNCC2)C1 | -16%
COc1ccc(C(=O)Nc2ccc(Br)cc2F)cc1S(=O)(=O)N1CCCC1 | -17%
CC(C)(C)CC(C)(C)NC(=S)N1CCN(Cc2ccc3c(c2)OCO3)CC1 | -20%
COc1cc2c(cc1NC(=O)C(C)Sc1nc3ccccc3n1C)oc1ccccc12 (stereo not given) | 9%
N#Cc1ccc(OCC(=O)N(C2CCCCC2)C2CCS(=O)(=O)C2)cc1 (stereo not given) | -8%
O=S1(=O)N[C@@H](CC2=CCCCC2)C2CCCCC2O1 (stereo not given in full) | -1%
O=C(c1cc(-c2ccco2)nn1-c1cccc(Cl)c1)N1CCCCC1 | ?
O=C(O)CSc1cc(C(F)(F)F)nc(-c2ccccn2)n1 | 11%
CCCN1C(=O)c2ccccc2NC1c1ccc(OC)c(COc2cccc(C)c2C)c1 (stereo not given) | 0%
CS(=O)(=O)N(CC(=O)Nc1ccc(Br)cc1)c1ccccc1Br | 6%
CC1CC(C)CN(S(=O)(=O)N2CCCC(C(=O)NCCCN3CCCCC3C)C2)C1 (stereo not given) | -9%
CCCCCNCc1ccc(Cl)cc1 | 2%
O=C(C1CC(=O)N(C2CCCC2)C1)N1CCN(c2ccccc2)CC1 (stereo not given) | -7%
CNC(=O)c1ccc(Oc2ccc(C(=O)NC)cc2)cc1 | -6%
CCOC(=O)[C@@H]1[C@H]2COc3ccc(Br)cc3[C@@H]2N2C(=O)N(c3ccc(F)cc3)C(=O)[C@@]12C | -1%

New compounds follow
SMILES	VDR inhibitor
O=C1CN(C(=O)CSc2nc3ccccc3c(=O)n2CC2CCCO2)c2ccccc2N1 (stereo not given)	-11%
O=C(NCCN1C(=O)C2C3C=CC(C3)C2C1=O)Nc1cccnc1 (stereo not given)	-1%
CC(C)/C=N/NC(=O)c1ccc(Cl)cc1	?
Cc1ccc(C(=O)OCC(=O)N2CC(C)CC(C)C2)cc1S(=O)(=O)N1CCOCC1 (stereo not given)	-4%
Cc1[nH]n(-c2ccccc2)c(=O)c1/C=N/N(C)c1ccccc1	?
C#CCOc1ccc(Cl)cc1/C=N/O	-1%
CCCC(NCC(=O)Nc1ccccc1C(=O)NC1CC1)c1ccccc1 (stereo not given)	-5%
COc1ccc(-n2c(Cc3cccn3C)nnc2SCC(=O)Nc2cccc(Cl)c2)cc1	-7%
Oc1ccccc1/C=N/[n+]1ccccc1	11%
CCCCOc1ccc(NC(=O)CN2CCN(Cc3ccccc3)CC2)cc1	-19%
O=C(COC(=O)c1n[nH]c(=O)c2ccccc12)Nc1cccc(S(=O)(=O)N2CCOCC2)c1	9%
CC(=O)Nc1ccc(C)cc1-c1nc2ccccc2n(Cc2cccc(Br)c2)c1=O	21%
CCCCC/C=C\C/C=C\CCCCCCCC(=O)NCCCC(=O)O	-5%
Cc1ccc(Cn2nnc3c(=O)[nH]c(C4CCN(S(=O)(=O)c5ccccc5F)CC4)nc32)cc1	-6%
Cc1ccc(NC(=O)c2ccccc2NC(=O)Cc2ccccc2)cc1	2%
c1ccc2c(-c3ccncc3)c[nH]c2c1	-11%
COc1ccc(-c2cc(C)no2)cc1S(=O)(=O)NCCc1ccco1	-10%
CCc1ccccc1NC(=O)NC1CCCCCCC1	-1%
Cc1ccc(-c2cnco2)cc1	-10%
Cc1ccc(CNC(=O)C2CCCN2C(=O)Nc2ccc(F)cc2)cc1 (stereo not given)	13%
COc1ccccc1N1CCN(C(=O)c2cc3ccc4ccc(C)[nH]c4c3n2)CC1	8%
COc1cccc(CNc2nc(SC)ncc2CO)c1	-13%
COc1cccc(-n2c(SCc3c(C)noc3C)nnc2-c2cccc(S(=O)(=O)N(C)C)c2)c1	-6%
CC(=O)Nc1cc2cc(NS(=O)(=O)c3ccc(C)cc3)ccc2oc1=O	24%
CCC[C@H](NC(=O)[C@H](CC(C)C)N(C)C(=O)CNC(=O)[C@@H](NC(=O)[C@H](Cc1ccccc1)NC(=O)[C@H](CCCCN)NC(=O)[C@@H](N)CC(=O)O)C(C)C)C(N)=O	-1%

Only part of the results is shown. The share of hits here may be higher or lower than overall.
